From PubChem
Arbovirus anti = antivirals against arbovirus infection. inhibition, % at 10 µM. arbovirus infection cell-based antiviral screen. 200,000 compounds, 0.37% hits;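 active = inhibition from about 30%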;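 also: bluetongue infection of BSR cells; cell survival read as ATP light after 72 h; 0% = infected wells without compound and 100% = uninfected wells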
RecA splice inh = inhibitors of M. tuberculosis RecA intein splicing; cell-free RecA intein splicing, fluorescence; 290,000 compounds, 0.75% hits; inhibition, %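 (about 9 µM by stock and volumes)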; in the data active = inhibition above about 30%; inconclusive = no clear call, values can overlap the other calls;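 also: 0% = vehicle wells and 100% = reference inhibitor control wells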
Target sequence (P9WHJ3 whole entry, looked up, canonical isoform): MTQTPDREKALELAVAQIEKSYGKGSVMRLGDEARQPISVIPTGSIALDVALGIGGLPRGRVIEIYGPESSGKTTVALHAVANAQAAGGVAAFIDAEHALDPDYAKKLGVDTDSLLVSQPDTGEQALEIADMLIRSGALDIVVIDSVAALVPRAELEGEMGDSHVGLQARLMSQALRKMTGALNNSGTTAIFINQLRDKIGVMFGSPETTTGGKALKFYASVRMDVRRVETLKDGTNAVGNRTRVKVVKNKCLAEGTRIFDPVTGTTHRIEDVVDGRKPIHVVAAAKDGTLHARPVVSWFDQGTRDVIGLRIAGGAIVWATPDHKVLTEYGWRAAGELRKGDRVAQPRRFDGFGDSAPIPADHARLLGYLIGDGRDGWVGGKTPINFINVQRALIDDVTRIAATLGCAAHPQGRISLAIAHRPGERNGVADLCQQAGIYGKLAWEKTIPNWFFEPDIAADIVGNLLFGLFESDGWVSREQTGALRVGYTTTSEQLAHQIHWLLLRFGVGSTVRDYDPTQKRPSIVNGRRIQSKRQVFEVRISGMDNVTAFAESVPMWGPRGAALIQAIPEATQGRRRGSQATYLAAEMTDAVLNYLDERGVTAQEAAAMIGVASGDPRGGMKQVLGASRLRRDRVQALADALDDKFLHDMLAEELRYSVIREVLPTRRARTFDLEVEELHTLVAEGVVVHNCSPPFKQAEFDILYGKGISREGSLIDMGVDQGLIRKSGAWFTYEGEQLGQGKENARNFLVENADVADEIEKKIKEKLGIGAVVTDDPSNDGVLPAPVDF
Mtb bLac sens = beta-lactam sensitization of Mtb H37Rv. M. tuberculosis H37Rv growth with meropenem, percent inhibition; hits of this screen are not shown here. inhibition, % at 25 µM. 330,000 compounds, 0.27% hits;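 active = about 74% or more and at least 40 points above the plate without the antibiotic, then above 30% in a dose series; inconclusive = first-round hits that could not be retested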;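 also: growth measured after seven days incubation then overnight dye step; 0% = bacteria only wells and 100% = bacteria with antibiotic; twin plates without the antibiotic show which effects depend on it; some results filed as inactive read as strong as hits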
Mtb H37Rv = M. tuberculosis H37Rv growth inhibitors, H37Rv strain (AID 1626); one-dose inhibition, % at 10 µM; IC50 in µM for titrated hits; M. tuberculosis H37Rv growth inhibition; higher % means a stronger effect; 220,000 compounds, 0.95% hits;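 active = confirmed in a dose series; inconclusive = inhibition above 80% but not taken into the dose series; inactive = below 80% or under 30% at every dose of the series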;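 also: bacteria incubated seven days before Alamar blue readout; 0% = bacteria only wells and 100% = bacteria with antibiotic wells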
YopH PTP inh = YopH (Yersinia) phosphatase inhibition | fluorescence Ex485/Em525 | inhibition, %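 (about 10 µM by stock and volumes)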 | 140,000 compounds, 0.16% hits | AID 898;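 active = inhibition of 50% or more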;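 also: controls were vehicle for no effect and minimum signal wells for full effect; inactives centre near -20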
Arbovirus anti repeat = recorded beside Arbovirus anti, whose call it bears; inhibition, %; measured here: 10K subset replicate screen; many hits read low in the repeat;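 first of two repeat runs on a subset; 0% = infected and 100% = uninfected wells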
Starred values were filed as active, the others as inactive; ? = inconclusive; . = no result given. These rows are one share of the data; the hit share may differ from the screen's.

SMILES | Arbovirus anti | RecA splice inh | Mtb bLac sens | Mtb H37Rv | YopH PTP inh | others
Fc1cccc(CNCC2CCCO2)c1 (centres undefined) | . | -1.7 | 7 | . | .
CC1Cn2c(nnc2C23CC4CC(CC(C4)C2)C3)S1 (centres undefined) | 9 | -0.6 | -3 | -5% | -13
CC1=CC(=O)N(c2ccc(C)cc2)C1c1ccc(Cl)cc1 (centres undefined) | -8 | 2.5 | 5 | 11% | -8
COC(=O)c1ccccc1CCC(C)=O | -1 | -2.2 | -5 | -5% | -4
COc1ccc(Cl)cc1NC(=O)CSc1nnc(CNC(=O)c2ccco2)o1 | -3 | 1.9 | 4 | -1% | .
O=C(CCc1ccc(O)c(O)c1)NNC(=S)NCCc1ccccc1 | -5 | -8.4 | 10 | 3% | -17
COc1ccccc1NC(=O)CSC1=NC(=O)C(NC(C)=O)C(=O)N1 (centres undefined) | 1 | 0.4 | 1 | -21% | -1
Cc1nc(SCC(=O)Nn2c(-c3ccccc3)nc3ccccc3c2=O)n[nH]1 | 2 | -0.2 | -3 | -4% | -1
O=C(CCn1ccc2cc(S(=O)(=O)N3CCCC3)ccc21)NCc1ccccc1F | . | -0.9 | 17 | . | .
CCC(C(=O)NC1CCCC1)N(C(=O)Cn1nnc(-c2ccc(OC)c(OC)c2)n1)C1CCCCC1 (centres undefined) | -12 | 1.2 | -7 | 9% | -33
COc1ccc(NC(=O)c2noc(C(C)C)c2[N+](=O)[O-])cc1 | 10 | 3.2 | -3 | -3% | .
O=C(NC1(C(F)(F)F)NC(=O)N(Cc2ccco2)C1=O)c1cccs1 (centres undefined) | 2 | -1.2 | 0 | -2% | -33
Cc1ccc(NC(=O)c2ccc(NC3=NC4CS(=O)(=O)CC4S3)cc2)cc1 (centres undefined) | . | -1.4 | 6 | . | .
COC(=O)c1ccc(OC(=O)C2CSC3(C)CCC(=O)N23)cc1 (centres undefined) | . | -2.4 | -4 | . | .
CCCCNc1nc(=S)n(-c2ccccc2)c(C)c1C(C)=O | 5 | -3.1 | -1 | 10% | .
COC(=O)C1=C(C(=O)OC)[C@@H]2Nc3ccccc3[C@@]23C[C@@H](C(=O)OC)N=C3N1 | . | -2.1 | 0 | 4% | .
O=C(Cn1c(NCCCO)nc2ccccc21)c1cccs1 | -2 | -0.6 | -5 | -1% | -48 | Arbovirus anti repeat=-3
CCOC(=O)N1CCC(NC(=O)c2cc(C(=O)Nc3ccc(S(=O)(=O)N4CCOCC4)cc3)ccc2CO)CC1 | -5 | 1.0 | -10 | 1% | .
CCNC(=O)CC1C(=O)N(C)C(=S)N1NC(=O)c1ccc(Cl)cc1 (centres undefined) | -7 | -4.8 | -17 | -2% | -37
COc1ccc(CCn2c(=O)[nH]c3cc(C(=O)NCCc4ccccc4)ccc3c2=O)cc1OC | 8 | . | . | 0% | -36
CN1/C(=C\C=N\NC(=O)c2cccnc2)C(C)(C)c2ccccc21 | 7 | -1.8 | 86 | 0% | .
Cc1ccc(NC(=S)NC2CCSc3ccccc32)cc1C (centres undefined) | . | -0.4 | 2 | . | .
CC1(C)NC(=O)N(CC(=O)Nc2cc(S(=O)(=O)N3CCOCC3)ccc2N2CCOCC2)C1=O | 17 | -1.2 | -3 | 1% | .
Cc1ccc(NC(=O)c2ccc3c(c2)C(=O)N(c2cc(C)ccc2C)C3=O)nc1 | . | 0.6 | 0 | . | .
COC(=O)c1ccccc1NC(=O)CS(=O)(=O)Cc1nc(-c2ccc(C)cc2)oc1C | 9 | 2.0 | 7 | -3% | -51 | Arbovirus anti repeat=3
Cc1ccccc1C(=O)Oc1ccc2ccc(O)cc2c1 | . | 3.2 | 86 | . | .
Cc1ccc(/C=C/C2=NN(Cc3ccccc3)C(=O)CC2)cc1 | -1 | 2.7 | 2 | 6% | -23
COc1cc(SC)ccc1C(=O)NCc1ccccc1 | -3 | 0.6 | 17 | 0% | -25
COc1ccc(-c2cc(-c3n[nH]c(=S)n3-c3cccc4ccccc34)[nH]n2)cc1 | 4 | 10.0 | -3 | 5% | .
CC(C)(C)SCCNC(=O)c1ccc(NS(C)(=O)=O)cc1 | 5 | -3.0 | 12 | -2% | -35
Cc1ccc(S(=O)(=O)N(C)C)cc1NC(=O)COC(=O)/C=C/c1ccc2c(c1)OCO2 | -1 | -1.5 | -2 | 12% | .
COc1ccc(CNC(=O)c2cc(-n3cnnc3)ccc2Cl)cc1 | 3 | 3.4 | -3 | -2% | -34
CCOC(=O)c1oc2ccc(CNC3CCCCC3)c(Cl)c2c1C | -20 | 3.4 | 10 | 6% | -16
COc1ccccc1N1CCN(C(=O)c2cc(-c3ccc(C)cc3)on2)CC1 | 1 | -1.6 | 54 | 4% | 31
Cc1ccccc1NC(=O)Cc1nnc(SCC(=O)NC2CCCCC2)n1C | . | -1.3 | -5 | . | .
Cc1ccc(O)c(NC(=O)CN(C)S(=O)(=O)c2ccc(Cl)cc2)c1 | . | -2.2 | -8 | 6% | .
CN1CCN(C(=O)c2ccc(Oc3ccc([N+](=O)[O-])cc3)cc2)CC1 | 7 | 1.4 | -2 | 3% | .
CSc1nnc(-c2nnc(SC)n2-c2ccccc2)n1-c1ccccc1 | -7 | -3.6 | 0 | 4% | 40
CC(=O)c1cccc(NC(=O)Nc2cnn(Cc3ccc(Cl)cc3Cl)c2)c1 | -4 | 1.6 | 19 | -11% | -16
Cc1ccc(C)c(S(=O)(=O)NCCCn2ccnc2)c1 | -3 | -5.7 | -6 | 1% | -26
O=C(O)c1cc(N/N=C/c2ccc(-c3ccc(F)cc3)o2)ccc1Cl | . | -5.6 | 14 | . | .
O=C1C(=O)N(Cc2ccccc2)C(=O)N1CCOc1ccccc1 | -8 | . | . | 13% | .
C[C@]12CCC(=O)C=C1CC[C@@H]1[C@@H]2C(=O)C[C@]2(C)C(=O)CC[C@@H]12 | -11 | -0.2 | 1 | -8% | -21
Cc1cc(NC(=O)CSc2nnc(C)c(=O)[nH]2)no1 | 6 | -0.4 | 8 | -4% | -41 | Arbovirus anti repeat=5
O=C(CC1C(=O)NCCN1Cc1ccccc1C(F)(F)F)NCCc1ccccn1 (centres undefined) | 5 | 0.4 | 3 | -2% | .
O=C(CC1CCCC1)OCn1nnc2ccccc2c1=O | 4 | -4.1 | 100 | 5% | -15
O=C(C1CCC(=O)N(C2CCCCCC2)C1)N1CCN(c2ccccc2Cl)CC1 (centres undefined) | . | -0.6 | 2 | . | .
CC1CCN(C(=O)COc2ncnc3ccccc23)CC1 | 0 | 0.2 | -2 | -2% | .
COc1cccc(CNC(=O)C2CCN(S(=O)(=O)c3c(C)nn(C)c3C)CC2)c1 | 3 | -0.5 | -12 | 0% | -47
CC(=O)Nc1ccc(S(=O)(=O)Nc2ccccc2C(=O)NCc2cccnc2)cc1 | . | 0.4 | -8 | . | .
CSc1nsc(SCC(=O)Nc2ccc(O)c(C(=O)O)c2)n1 | . | -2.1 | -1 | . | .
CC(C)(C)NC(=O)COc1ccc(CNCCc2ccccc2)cc1 | 1 | 1.2 | -7 | -3% | .
O=C(N/N=C/c1ccc(O)c(O)c1O)/C(=C/c1ccc([N+](=O)[O-])cc1)NC(=O)c1ccccc1 | -4 | 18 | 4 | -8% | 6
CCCCn1c(-c2sccc2C)n[nH]c1=S | 3 | 1.9 | -5 | 0% | .
O=c1[nH]c(N2CCOCC2)nc2ncn(Cc3ccccc3)c12 | -1 | 0.2 | 0 | -3% | -10
C=CCNc1nc(NCCN2CCOCC2)nc(OC)n1 | -3 | -1.8 | -7 | -6% | -43
CCOC(=O)c1ccc2c(c1)n(CC)c(/C=C/Nc1ccccc1)[n+]2CC | -15 | -1.1 | -4 | -5% | 4
CCc1ccc(OCC(=O)N/N=C/c2ccc(OS(=O)(=O)c3ccc(C)cc3)c(OC)c2)cc1 | -20 | -0.8 | -9 | 18% | -24
COc1ccc2nc3oc(C(=O)N4CCN(c5cccc(C(F)(F)F)c5)CC4)cc3cc2c1 | 0 | -1.6 | 0 | 5% | -9
CCN(CC)c1ccc(C(=O)N/N=C(\C)c2ccc(O)cc2)cc1 | -30 | -1.0 | 0 | 5% | -24

5 structures out of the list, arranged by formula weight, ascending.
SMILES | Arbovirus anti | RecA splice inh | Mtb bLac sens | Mtb H37Rv | YopH PTP inh | others
CC1=CC(=O)N(c2ccc(C)cc2)C1c1ccc(Cl)cc1 (centres undefined) | -8 | 2.5 | 5 | 11% | -8
COc1ccccc1N1CCN(C(=O)c2cc(-c3ccc(C)cc3)on2)CC1 | 1 | -1.6 | 54 | 4% | 31
COc1ccc(-c2cc(-c3n[nH]c(=S)n3-c3cccc4ccccc34)[nH]n2)cc1 | 4 | 10.0 | -3 | 5% | .
O=C(CCn1ccc2cc(S(=O)(=O)N3CCCC3)ccc21)NCc1ccccc1F | . | -0.9 | 17 | . | .
COc1ccc2nc3oc(C(=O)N4CCN(c5cccc(C(F)(F)F)c5)CC4)cc3cc2c1 | 0 | -1.6 | 0 | 5% | -9

(further entries)
SMILES | Arbovirus anti | RecA splice inh | Mtb bLac sens | Mtb H37Rv | YopH PTP inh | others
C[C@@H](NC(=O)C(=O)c1c[nH]c2ccccc12)c1ccccc1 | . | -1.1 | -3 | 7% | .
C=CCNC(=O)CCc1nnc(C2(c3ccc(Cl)cc3)CCC2)o1 | -4 | 15 | -1 | 1% | .
COc1cc(NS(=O)(=O)c2ccc(Nc3nc(-c4ccccc4)cs3)cc2)nc(OC)n1 | -5 | 25 | 5 | 2% | -33
O=C(NCCc1ccccn1)c1ccc(OC2CCN(Cc3ccccn3)CC2)cc1 | . | 2.6 | ? | . | .
Cc1c(OC(C)C(=O)NCCN2CCOCC2)ccc2c3c(c(=O)oc12)CCC3 (centres undefined) | . | 1.9 | 4 | . | .
Cn1cc(S(=O)(=O)NCc2ccc(F)cc2)c(=O)n(C)c1=O | . | -0.4 | 2 | . | .
COc1cc(/C=C/C(=O)O)cc(S(=O)(=O)NCc2ccc3c(c2)OCO3)c1OC | -3 | -1.5 | -6 | -5% | .
CN(C[C@H](Cc1ccccc1)N(CCN(CCc1ccccc1)N=O)N=O)N=O | 2 | 0.0 | -3 | -5% | .
Cc1ccc(/C=C/C(=O)NCc2cccs2)cc1 | -12 | 1.8 | 7 | 16% | -9
CCSc1nnc(NC(=O)C2CCN(S(=O)(=O)c3cc(C(F)(F)F)ccc3Cl)CC2)s1 | 4 | -4.1 | -5 | -3% | -24
O=C(COc1ccc2ccccc2c1)NNC(=O)[C@@H]1CCCC[C@@H]1C(=O)O | 7 | -1.5 | -2 | . | -22
COc1cccc(NC(=O)Nc2nnc(-c3ccccc3SCc3ccccc3)s2)c1 | 2 | 3.6 | 10 | 7% | -9
Cc1ccc2c(c1)C(=O)C(=O)N2CCCOc1ccccc1 | -9 | 4.4 | 2 | -8% | .
COc1ccc(NC(=O)Cn2c(=O)c(C)nc3ccccc32)cc1Cl | . | 0.8 | -4 | -8% | .
COc1cc2[nH]cc(C(=O)NCc3cccs3)c(=O)c2cc1OC | . | 6.5 | -6 | -12% | -5
O=C(c1nc2nc(-c3ccccc3)cc(C(F)(F)F)n2n1)N1CCOCC1 | 5 | -4.3 | 4 | -18% | -43
CCCNS(=O)(=O)c1ccc(OCC(=O)N2CCN(Cc3ccccc3)CC2)cc1 | 6 | 2.3 | 0 | 1% | -20
COCCN(C(=O)COC(=O)c1cccnc1Cl)c1c(N)n(Cc2ccccc2)c(=O)[nH]c1=O | . | -0.3 | -7 | . | .
CC(=O)c1ccc(-c2ccc(C(=O)N3CCCc4ccccc43)o2)cc1 | -5 | 12 | 61 | 18% | .
C/C(=N\NC(=O)c1nnn(-c2nonc2N)c1C)c1ccc(OCc2ccccc2)cc1 | . | 0.6 | 6 | . | .
Cc1ccc(CNC(=O)CSc2nc3ccccc3c(=O)n2CCCO)cc1 | -3 | 2.2 | -1 | 1% | -39
CCCN1CCN(C2CCCCC2NS(=O)(=O)c2ccc(Cl)cc2)CC1 (centres undefined) | . | -1.5 | 17 | . | .
COc1ccc(CCNC(=O)Cc2cc(=O)[nH]c(=O)[nH]2)cc1OC | 10 | -1.2 | 1 | -4% | -30 | Arbovirus anti repeat=7
Cc1ccc(-n2nc3c(=O)n(C(C)C(=O)NCCC4=CCCCC4)nc(C)c3c2C)cc1 (centres undefined) | . | 5.9 | 0 | . | .
Cn1nc(-c2ccc(Cl)cc2)cc1NC(=O)CC(C)(C)CC(=O)O | . | 0.2 | 1 | -4% | .
CCCc1cc(=O)[nH]c2nnc(SCC(=O)Nc3ccc4c(c3)OCCO4)n12 | . | 5.1 | -3 | . | .
Cc1ccc(S(=O)(=O)N(C)C)cc1NC(=O)c1ccccc1Br | 2 | 0.5 | 0 | -12% | .
Cc1nn(CCc2nn[nH]n2)c2nc(-c3ccc(Br)cc3)cc(C(F)(F)F)c12 | 17 | 4.2 | 100 | 78% | .
